# Compound activity deposited in PubChem by National Center for Advancing Translational Sciences (NCATS).
# Sfp PPTase inh: qHTS Assay for Inhibitors of Bacillus subtilis Sfp phosphopantetheinyl transferase (PPTase). Biochemical Sfp PPTase activity, qHTS. 4'-phosphopantetheinyl transferase ffp (Bacillus subtilis), Q9F4F7. Potency, µM, for the others: max response, negative = inhibition, usual class: inhibitors. 310,000 compounds, 3.5% hits; active = well fitted inhibition curve with a large enough effect; inconclusive = small, poorly fitted or top-dose-only effect, or another doubt; inactive = no such curve, though single readings can be large or run the other way;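 note: the enzyme is Sfp with the accession as filed and its product quenches rhodamine fluorescence; potency is the fitted concentration of half-maximal effect; 0% = enzyme reaction without inhibitor and -100% = no enzyme wells; top concentration of the series not given in the record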
#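 Step 1, compound plus 15 nM Sfp-PPTase, 15 min, room temperature. Step 2, add rhodamine-CoA (5 uM) and BHQ-2-YbbR (12.5 uM). Step 3, read 525/598 nm fluorescence at 0 and 30 min.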
# CtBP-E1A inh: qHTS Assay for Inhibitors of the CtBP/E1A Interaction; CtBP / adenovirus E1A interaction (AlphaScreen); AlphaScreen GST-E1A/His-CtBP binding, 1536-well; hits give low values; control for the full effect not named in the record; activity change, % (concentration not given with the values); 340,000 compounds, 0.49% hits; AID 651724, 2012; in the data active means activity change below about -65%; inconclusive means about -30% to -65%; inactive means above about -30%; note: % is set by controls: 0 for no effect and ±100 for the full control effect
#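 Homogeneous bead-based format: GST-tagged E1A captured on glutathione donor beads, His-tagged CtBP on nickel acceptor beads; compounds precede bead addition by 2 h at 37 °C.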
# D2 potentiator: Beta-Arrestin HTS for Positive Allosteric Modulators of the Human D2 Dopamine Receptor: Potentiators; D(2) dopamine receptor (Homo sapiens), P14416; potentiation, % (no concentration beside the values); 360,000 compounds, 0.23% hits; AID 624464, 2012; DiscoveRx D2 beta-arrestin cells, luminescence, 90 min; 100% = 57 uM dopamine signal; active = potentiation of 50% or more; inconclusive = 30% to 50%; inactive = 30% or less;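 note: compound concentration not given in the record; tested on top of an EC20 dose of dopamine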
#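 D2 cells co-treated with compound plus 50 nM dopamine (EC20) for 90 min at 37 deg C to detect potentiation. Beta-arrestin recruitment was read as enzyme-fragment luminescence after 1 h at ambient temperature. Full response was set by 57 uM dopamine.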
# Six1-Eya2 blk: qHTS Assay for Inhibitors of the Six1/Eya2 Interaction | Homeobox protein SIX1 (Homo sapiens) + Protein phosphatase EYA2 (Homo sapiens), … | AlphaScreen GST-Six1/His-Eya2 binding, biochemical; hits give low values; control for the full effect not named in the record | activity change, % (no concentration beside the values) | 360,000 compounds, 0.56% hits | AID 651725, 2012; in the data active = activity change below about -65%; inconclusive = about -30% to -65%; inactive = above about -30%; note: % is set by controls: 0 for no effect and ±100 for the full control effect
#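 AlphaScreen with GST-Six1 and His-Eya2 (5X mix: 250 nM and 500 nM), glutathione donor and nickel acceptor beads; buffer 50 mM Tris pH 8.0, 300 mM NaCl, 1 mM TCEP; 1 h at 37 C in the dark.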
# TRPV1 potentiator: HTS Assay for Compounds that Act as Potentiators of the Vanilloid Receptor 1 | Transient receptor potential cation channel subfamily V member 1 (Homo sapiens), Q8NER1 | potentiation, % at 8.33 µM | TRPV1-expressing cells, Fluo-8 calcium influx, capsaicin EC20 potentiation; host cell line not named in the record; control for the full effect not named in the record | AID 540277, 2011 | 320,000 compounds, 0.02% hits; active means potentiation above 80%; inconclusive means 30% to 80%; inactive means below 30%; note: 0% is about no effect
# Target sequence (Q8NER1 whole entry, looked up): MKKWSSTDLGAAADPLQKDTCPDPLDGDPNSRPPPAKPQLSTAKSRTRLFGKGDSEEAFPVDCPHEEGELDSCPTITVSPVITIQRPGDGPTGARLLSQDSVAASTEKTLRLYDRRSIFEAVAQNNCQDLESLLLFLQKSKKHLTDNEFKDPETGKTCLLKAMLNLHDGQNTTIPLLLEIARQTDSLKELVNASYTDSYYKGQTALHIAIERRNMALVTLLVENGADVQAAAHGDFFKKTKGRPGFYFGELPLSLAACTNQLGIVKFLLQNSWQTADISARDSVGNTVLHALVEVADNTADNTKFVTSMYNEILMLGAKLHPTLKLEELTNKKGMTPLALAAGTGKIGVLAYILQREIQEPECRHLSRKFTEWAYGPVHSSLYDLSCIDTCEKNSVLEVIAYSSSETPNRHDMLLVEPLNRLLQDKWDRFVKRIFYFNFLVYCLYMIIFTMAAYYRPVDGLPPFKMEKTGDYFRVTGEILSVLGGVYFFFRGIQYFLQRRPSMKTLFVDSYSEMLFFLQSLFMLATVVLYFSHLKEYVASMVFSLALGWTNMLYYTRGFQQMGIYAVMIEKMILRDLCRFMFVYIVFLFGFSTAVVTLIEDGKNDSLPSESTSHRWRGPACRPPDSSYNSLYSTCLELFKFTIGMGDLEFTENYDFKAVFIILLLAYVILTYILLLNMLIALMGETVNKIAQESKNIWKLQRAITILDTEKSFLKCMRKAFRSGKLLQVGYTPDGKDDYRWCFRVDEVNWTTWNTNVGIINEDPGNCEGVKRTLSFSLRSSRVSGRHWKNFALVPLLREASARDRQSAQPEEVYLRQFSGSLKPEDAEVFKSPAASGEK
#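 TRPV1-expressing cells were cultured overnight at 35.5C and loaded with Fluo-8 calcium dye for 40 to 90 min at room temperature. After a 10 s baseline, compound was added and calcium influx was read kinetically for 3 min (ex 480/em 520 nm).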
# PINK1 modulator: A Quantitative High throughput Screen to Identify Chemical Modulators of PINK1 Expression | Potency, µM (doses to about 76.6 µM), for the others: top-dose activation (PINK1 increase), hits mostly activators | PINK1 immunofluorescence, high-content cytometry, 24 h | 410,000 compounds, 0.2% hits; active = well fitted activation curve with a large enough effect; inconclusive = small, poorly fitted or top-dose-only effect; inactive = flat fitted curve, though single readings scatter; cell line not stated here;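 note: potency is the fitted concentration of half-maximal effect; % of control where 0% means no effect; nearly all actives have a fitted effect of over 65% in size; a mitochondrial uncoupler was the plate control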
#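 Fluorescence from anti-PINK1 antibody, together with nuclear and cell stains, was scanned on a laser-scanning cytometer. Before staining, stable-line cells were incubated 24 hours with compounds at 5 concentrations; primary antibody 12 h at 10 degrees C.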
# D2 agonist: Beta-Arrestin HTS for Positive Allosteric Modulators of the Human D2 Dopamine Receptor: Agonists; AID 624465, 2012; DiscoveRx PathHunter D2 beta-arrestin, luminescence, 90 min; 100% = 57 uM dopamine signal; D(2) dopamine receptor (Homo sapiens), P14416; activation, % (no concentration beside the values); 360,000 compounds, 0.084% hits; in the data active = activation above about 40%; inconclusive = about 15% to 40%; inactive = below about 15%; note: compound concentration not given in the record; the text of the record calls up to 30% inactive
#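 DiscoveRx PathHunter D2 beta-arrestin cells (2,100/well) attached overnight, then compound-stimulated 90 min at 37 C in HBSS/10 mM HEPES/0.1% Tween-20 buffer; beta-galactosidase complementation read by luminescence after 1 h at ambient temperature. Dopamine 57 uM final (EC100) as control.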
# Starred values were filed as active, the others as inactive; ? = inconclusive; / = not tested or not shown; & = joins results of further samples.
SMILES,Sfp PPTase inh,CtBP-E1A inh,D2 potentiator,Six1-Eya2 blk,TRPV1 potentiator,PINK1 modulator,D2 agonist
Cc1c(OCC(=O)NC(Cc2c[nH]c3ccc(O)cc23)C(=O)O)ccc2c3c(c(=O)oc12)CCC3 (stereo unspecified),-16%,-13,8,-17,4,-0.5%,0.2
O=C(COC(=O)CNC(=O)c1ccc(Cl)cc1Cl)NC(=O)NCc1ccccc1,/,17,-13,0,-21,-2.6%,-5.9
O=C(CNC(=O)c1ccccc1Br)Nc1cccc(S(=O)(=O)Nc2ccccc2Cl)c1,/,/,5,-28,/,0.0%,0.4
Cc1cc(C(=O)NNc2ccc(Cl)cc2)no1,-17%,7,-12,13,-15,2.7%,-6.8
Cc1ccc(S(=O)(=O)N2CCCCC2)cc1C(=O)Nc1cccnc1,-6%,8,-4,-3,28,0.5%,?
Cc1ccc(OCCNS(=O)(=O)c2ccc(N3CCCC3=O)cc2)cc1,14%,-1,13,-3,5,1.5%,0.1
C#CCN(C[C@H]1[C@H](OC(=O)NCCCCCC)[C@H](OC(=O)NCCCCCC)C[C@H]2C(=O)N(c3ccccc3)C(=O)[C@@H]12)S(=O)(=O)c1ccc(C)cc1,/,3,5,-1,/,2.8%,-8.2
CCOC(=O)N1CCN(C(=O)/C(=C/c2ccc(Br)cc2)NC(=O)c2ccc(OC)cc2)CC1,-17%,-13,3,-5,-1,2.3%,-4.2
COC(=O)c1sccc1NC(=O)CC1C(=O)NCCN1C(=O)c1ccccc1 (stereo unspecified),11%,6,-7,-2,-3,1.7%,-0.6
CC1(C)CN(c2ccccc2)N(C(=O)c2ccc(C#N)cc2)C1=O,-4%,1,-18,22,/,0.7%,1.4
Cc1ccc(S(=O)(=O)N2CCN(C(=O)Cn3c(=O)oc4ccccc43)CC2)cc1,/,6,-12,-14,/,1.5%,5.5
CC(C)[C@H](NC(=O)c1ccccc1)C(=O)OCC(=O)Nc1ccc2c(c1)OCCO2,3%,/,2,0,24,1.6%,-4.1

# The list goes on (2 carried over from the part before).
SMILES,Sfp PPTase inh,CtBP-E1A inh,D2 potentiator,Six1-Eya2 blk,TRPV1 potentiator,PINK1 modulator,D2 agonist
Cc1ccc(S(=O)(=O)N2CCN(C(=O)Cn3c(=O)oc4ccccc43)CC2)cc1,/,6,-12,-14,/,1.5%,5.5
CC(C)[C@H](NC(=O)c1ccccc1)C(=O)OCC(=O)Nc1ccc2c(c1)OCCO2,3%,/,2,0,24,1.6%,-4.1
COc1cccc(CN(C)C(=O)CSC(C)C(=O)Nc2cc(C)on2)c1OC (stereo unspecified),/,5,-6,7,3,0.3%,-0.9
COC(=O)c1ccccc1Nc1cc(C)nc2nc(C)nn12,3%,-15,0,-6,4,0.4%,-2.5
Cc1ccc(C2(COC(=O)C(C)C)CO2)c(OC(=O)C(C)C)c1 (stereo unspecified),1%,-1,-3,0,-20,0.1%,-2.8
COc1ccc(NS(=O)(=O)c2ccc(OC)c3ccccc23)cn1,-15%,-5,15,-4,1,0.3%,0.6
NNC(=O)c1ncoc1-c1ccc(Cl)cc1,24%,/,-12,-1,-15,0.5%,-5.3
COc1cc(OC)c2c(c1)OC(c1ccc(OC)c(OC)c1)C(O)C2=O (stereo unspecified),24%,-25,-4,10,-4,1.3%,-0.2
C=CCN(c1nc(C)c(Br)c(OC)n1)S(=O)(=O)c1ccc(C)cc1,-3%,11,-1,10,4,4.0%,0.7
O=C1CCCC/C1=N\Nc1ccc(OCc2ccccc2)cc1,-1%,-6,-5,2,4,?,2.5
CCCCN(CC)CCCNC(=O)c1cn(CC)c2ccc(S(=O)(=O)N3CCc4ccccc4C3)cc2c1=O,9%,-13,-13,6,-8,-3.5%&0.2%,-5.5
Cc1ccc(C)c(OCC(=O)Nc2ccc(N3CCOCC3)cc2)c1,-7%,5,-4,-15,?,0.6%,-0.6
O=C(c1cccs1)N1CCN(C(=O)N2CCOCC2)CC1,23%,8,-4,2,28,1.6%,-2.2
CC(NC(=O)Nc1ccc(F)cc1)C(c1cccs1)N1CCCC1 (stereo unspecified),1%,5,-25,2,-27,-1.6%,-5.4
Cc1ccc2oc(C(=O)NCC(c3ccco3)N3CCCC3)c(C)c2c1 (stereo unspecified),-1%,-23,-33,-14,-8,-0.2%,-2.0
COc1ccc(/C=C2\SC(=S)N(CCC(=O)N(CCO)Cc3ccccc3)C2=O)cc1OC,13%,-17,-11,1,4,4.6%,-1.7
COc1ccc(OCC(O)CN(C2CCCCC2)C2CCCCC2)cc1 (stereo unspecified),11%,-8,-16,-1,0,3.7%,-1.6
O=C(CSc1nc(-c2ccco2)cc(C(F)(F)F)n1)NCCc1ccccc1,2%,-8,-6,8,-5,1.1%,0.8
NC1=C(Br)C(=O)c2ccccc2C1=O,-5%,?,12,-23,6,-0.4%,11
CCOC(=O)C1(Cc2cccc(OC)c2)CCCN(C(=O)CCSC)C1 (stereo unspecified),2%,0,-3,-7,-2,1.0%,4.6
O=C(NNc1c2ccccc2nc2ccccc12)c1ccc(O)cc1O,-14%,-84*,-29,-84*,13,2.4%,-6.5
COC(=O)[C@H](Cc1c[nH]c2ccccc12)NC(=O)NCc1ccc(OC)cc1,11%,-3,-5,-3,1,-0.7%,2.7
Cc1cc(C)c2oc(-c3ccc(Cl)c(NC(=O)c4ccc(C#N)cc4F)c3)nc2c1,16%,1,-10,-14,6,23%,-2.9
COc1cccc(CNn2c(-c3cccc(C)c3)nc3ccccc3c2=O)c1O,-8%,1,3,0,-12,?,1.0
O=C(NC(=S)Nc1ccc(N2CCOCC2)cc1)c1cncc(Br)c1,56µM*,-12,15,-9,?,0.5%,-1.5
Cc1cc(C)c(S(=O)(=O)Nc2ncn[nH]2)c(C)c1,-7%,6,9,2,13,3.9%,0.3
CN(C)c1ccnc(C(=O)O)c1,56µM*,-13,-6,?,8,0.7%,0.0
COC(=O)c1cc(C(=O)N2CCN(c3ncccn3)CC2)cc([N+](=O)[O-])c1,-5%,-21,0,2,-5,-2.9%,-3.9
CSCC[C@H](NC(=O)OC(C)(C)C)c1nnc(SCc2ccc(F)cc2)o1,10%,-9,0,-2,-15,-0.3%,0.6
O=C(COC(=O)CNC(=O)c1ccccc1)Nc1ccc(S(=O)(=O)N2CCOCC2)cc1,11%,13,-10,5,22,-0.2%,0.1
CC(/C=C/c1ccccc1)=N\NC(=O)Cn1cncn1,21%,10,-2,-3,-3,2.9%,0.9
O=C(Nc1ccc2c(c1)N(S(=O)(=O)c1cccs1)CCC2)c1c(F)cccc1F,/,1,-15,-12,5,-0.1%,-0.7
CCOc1ccccc1NC(=O)N1CCC(NC(=O)c2ccccc2C)CC1,12%,2,-8,6,2,-1.3%,0.4
O=C(Nc1ccccc1)c1nsnc1C(=O)Nc1ccccc1,1%,/,-13,-2,-9,1.4%,-6.5
CS(=O)(=O)Nc1ccc(C(=O)N2CCN(c3ccccc3)CC2)cc1,3%,9,-6,0,10,?,0.8
COc1ccc(Cl)cc1-c1noc([C@@H]2O[C@H](CO)[C@@H](O)[C@H]2O)n1,/,5,-1,3,/,-0.6%,-1.4
Cc1ccc(C(=O)N/N=C\c2cccnc2)s1,6%,2,-7,-2,-16,-0.9%,-3.4
CCOc1ccc(S(=O)(=O)NCCC(=O)N2CCCC(C)C2)cc1 (stereo unspecified),/,6,-1,3,-25,-0.8%,-4.6

# Reprinted at random: seven records from the list
SMILES,Sfp PPTase inh,CtBP-E1A inh,D2 potentiator,Six1-Eya2 blk,TRPV1 potentiator,PINK1 modulator,D2 agonist
CS(=O)(=O)Nc1ccc(C(=O)N2CCN(c3ccccc3)CC2)cc1,3%,9,-6,0,10,?,0.8
O=C(Nc1ccccc1)c1nsnc1C(=O)Nc1ccccc1,1%,/,-13,-2,-9,1.4%,-6.5
CCOc1ccc(S(=O)(=O)NCCC(=O)N2CCCC(C)C2)cc1 (stereo unspecified),/,6,-1,3,-25,-0.8%,-4.6
CN(C)c1ccnc(C(=O)O)c1,56µM*,-13,-6,?,8,0.7%,0.0
CC(/C=C/c1ccccc1)=N\NC(=O)Cn1cncn1,21%,10,-2,-3,-3,2.9%,0.9
O=C(Nc1ccc2c(c1)N(S(=O)(=O)c1cccs1)CCC2)c1c(F)cccc1F,/,1,-15,-12,5,-0.1%,-0.7
O=C(COC(=O)CNC(=O)c1ccccc1)Nc1ccc(S(=O)(=O)N2CCOCC2)cc1,11%,13,-10,5,22,-0.2%,0.1

# (further entries)
SMILES,Sfp PPTase inh,CtBP-E1A inh,D2 potentiator,Six1-Eya2 blk,TRPV1 potentiator,PINK1 modulator,D2 agonist
COc1ccc(CCNC(=O)CN(c2ccc(OC)cc2)S(C)(=O)=O)cc1,26%,2,-6,9,-1,-1.2%,-4.9
Cc1cccc(C)c1-n1nnnc1C1(C)CCC(=O)N1CC(F)(F)F (stereo unspecified),/,-15,/,12,/,-0.8%,/
Cc1cc(Cl)ccc1NC(=S)NCC(O)c1ccccc1 (stereo unspecified),4%,-4,-2,4,-3,0.2%,4.9
CCCCN(CC)CCCNC(=O)C1c2ccccc2C(=O)N(C)C1c1cn(C)c2ccccc12 (stereo unspecified),13%,1,-21,-1,-6,0.5%,-3.4
COCC(C)NS(=O)(=O)c1ccc(C(=O)NCCCn2ccc3ccccc32)cc1 (stereo unspecified),6%,-2,-9,3,-13,0.9%,-3.7
CCCCOCCCNC(=O)C[C@@H]1C[C@@]2(C(=O)OCC)CCC=C2N(Cc2ccco2)C1=O,/,3,/,-4,/,1.6%,/
Cn1c(=O)c2c(nc(SCC(=O)c3ccc(F)cc3)n2C)n(C)c1=O,-6%,1,-4,5,1,0.0%,-2.7
COc1ccc(CNC2CC(C)N(C)CC2C)cc1OC (stereo unspecified),2%,2,3,8,?,-0.8%,-4.0
